# Vaccinia stage: blocks a specific stage of Vaccinia orthopoxvirus infection, primary screen, cell-based, single point | Vaccinia-infected cells, mCherry/Venus stage reporter fluorescence; stronger effect = lower value; some inactives read as strong as hits | activity change (mCherry), % (test concentration not listed) | actives 0.01% (n = 89,000) | AID 1053133, 2014;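 active = mCherry past -33% and 40 or more points under the early reporter, replicates agreeing; inconclusive = past -33% without that gap or agreement; tested in A549 cells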;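 also: scaled between vehicle wells and reference inhibitor wells; 23 nL library stock went into each well; one replicate is shown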
# Vaccinia stage Venus: further read-out of Vaccinia stage, marked with its call; activity change (Venus), %; measured here: Venus reporter, other viral stage;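 negative = less Venus signal; first of two replicates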
# An asterisk follows results filed as active; u = inconclusive; x = not tested or not shown. Only part of the results is shown (hit frequency here may not be typical).
# Start of the listing, in advance (2 entries):
mol	Vaccinia stage	Vaccinia stage Venus
COc1ccccc1C(=O)Nc1ccc2c(c1)OC[C@H](C)N(C)C[C@@H](C)[C@@H](OC)CN(C)C2=O	-13	-5
C[C@@H]1CN([C@H](C)CO)C(=O)c2cc(NS(=O)(=O)c3cccs3)ccc2O[C@@H](C)CCCCO[C@@H]1CN(C)S(=O)(=O)c1ccc(Cl)cc1	-8	-5

# Results, previewed entries included:
mol	Vaccinia stage	Vaccinia stage Venus
COc1ccccc1C(=O)Nc1ccc2c(c1)OC[C@H](C)N(C)C[C@@H](C)[C@@H](OC)CN(C)C2=O	-13	-5
C[C@@H]1CN([C@H](C)CO)C(=O)c2cc(NS(=O)(=O)c3cccs3)ccc2O[C@@H](C)CCCCO[C@@H]1CN(C)S(=O)(=O)c1ccc(Cl)cc1	-8	-5
COc1ccc(S(=O)(=O)N(C)C[C@@H]2Oc3ccc(NC(=O)CCCCCC(=O)Nc4ccccc4N)cc3C(=O)N([C@@H](C)CO)C[C@H]2C)cc1	3	6
CO[C@H]1CC[C@H]2CCOc3ccc(C#N)cc3C(=O)N(C)C[C@H](c3ccccc3)CC(=O)N(C)C[C@@H]1O2	14	-10
CC(C)NC(=O)N[C@@H]1CC[C@H](CCNS(=O)(=O)Cc2ccccc2)O[C@@H]1CO	-3	8
C[C@H]1CN([C@@H](C)CO)C(=O)c2cccc(NC(=O)c3cnccn3)c2O[C@@H]1CN(C)C(=O)Nc1ccccc1	0	-8
CCO[C@@H]1OC(C(=O)Nc2ccccc2)=C[C@H](C2CC2)[C@H]1CCCO	7	7
Cc1noc(C)c1NC(=O)Nc1ccc2c(c1)C(=O)N([C@@H](C)CO)C[C@@H](C)[C@H](CN(C)Cc1ccc(Cl)c(Cl)c1)O2	-2	-7
C[C@H](CO)N1C[C@H](C)[C@H](CN(C)C)Oc2ccc(NC(=O)CCCCCC(=O)Nc3ccccc3N)cc2CC1=O	14	4
O=C(c1ccccc1)N1C[C@H]2[C@@H](c3ccccc31)[C@H](CO)N2S(=O)(=O)c1ccccc1	12	10
CO[C@@H](CN(C)S(=O)(=O)c1cn(C)cn1)[C@@H](C)CN(C(=O)Nc1ccc(F)cc1)[C@H](C)CO	19	21
O=C(C1=C[C@@H](c2ccc3c(c2)OCO3)C[C@@H](OCCCCO)O1)N1CCOCC1	10	6
COC(=O)c1c(CC[C@@H](CO)NC(=O)N2CCC[C@H]2Cn2cc(C3(O)CCCCC3)nn2)oc(C(C)=O)c1C(=O)OC	10	-1
C[C@H](CO)N1C[C@H](C)[C@@H](CN(C)C(=O)Nc2ccc3c(c2)OCO3)Oc2ccc(NC(=O)NC3CCCCC3)cc2CC1=O	2	-1
C[C@H]1CN([C@@H](C)CO)C(=O)c2cc(NC(=O)Nc3cccc4ccccc34)ccc2O[C@@H]1CN(C)Cc1ccc(Oc2ccccc2)cc1	-24	-15
COc1ccc(S(=O)(=O)N(C)C[C@@H]2Oc3c(NC(=O)c4cnccn4)cccc3C(=O)N([C@H](C)CO)C[C@@H]2C)cc1	-5	-2
CCC(=O)Nc1ccc2c(c1)OC[C@H](C)N(Cc1ccccc1)C[C@H](C)[C@@H](OC)CN(C)C2=O	-23	-15
CO[C@H]1CN(C)C(=O)c2ccc(NC(=O)C3CCOCC3)cc2OC[C@H](C)N(Cc2nccs2)C[C@H]1C	6	-7
C[C@@H]1CN([C@H](C)CO)C(=O)c2cccc(NS(=O)(=O)c3ccccc3)c2O[C@@H]1CN(C)CC1CCCCC1	6	4
C[C@@H]1CN([C@@H](C)CO)C(=O)Cc2cc(NC(=O)Nc3ccc4c(c3)OCO4)ccc2O[C@H]1CN(C)Cc1ccccc1	u	x
C[C@H]1CN([C@@H](C)CO)C(=O)CCCn2cc(nn2)CO[C@@H]1CN(C)S(=O)(=O)c1ccccc1	9	4
COc1ccc(CN(C)C[C@H]2OCCCC[C@H](C)Oc3ccc(NS(=O)(=O)c4cn(C)cn4)cc3C(=O)N([C@@H](C)CO)C[C@@H]2C)cc1	13	3
C[C@@H]1CN([C@H](C)CO)C(=O)c2cc(NC(=O)Nc3ccc(F)cc3)ccc2O[C@@H](C)CCCCO[C@H]1CN(C)C(=O)Nc1ccc(C(F)(F)F)cc1	-17	1
CCCNC(=O)N1CC2(C1)CN(C(=O)c1ccccc1)[C@H](CO)c1[nH]c3cc(OC)ccc3c12	2	0
COc1ccc(S(=O)(=O)N[C@H]2CC[C@H](CCNC(=O)c3ccccc3F)O[C@H]2CO)cc1	-7	1
CO[C@@H]1CN(C)C(=O)c2cc(NS(=O)(=O)c3ccccc3)ccc2OC[C@H](C)N(Cc2ccccn2)C[C@@H]1C	-6	-11
COC(=O)c1c(CC[C@@H](CO)NC(=O)N[C@@H](Cc2ccccc2)Cn2cc(C3(O)CCCC3)nn2)oc(C(=O)N2CCOCC2)c1C(=O)OC	5	-1
CO[C@H]1CN(C)C(=O)c2ccc(NC(=O)C3CCCC3)cc2OC[C@@H](C)N(CCC(F)(F)F)C[C@@H]1C	-2	9
C[C@@H]1CCCCO[C@@H](CN(C)C(=O)CCCN(C)C)[C@H](C)CN([C@@H](C)CO)C(=O)c2cc(NC(=O)Cc3ccccc3)ccc2O1	24	13
CCNC(=O)C[C@@H]1CC[C@@H]2[C@H](COC[C@@H](O)CN2C(=O)Nc2ccc(Cl)c(Cl)c2)O1	u	x
COc1ccc(NC(=O)Nc2ccc3c(c2)C(=O)N([C@H](C)CO)C[C@@H](C)[C@H](CN(C)S(=O)(=O)c2ccccc2)OCCCC[C@@H](C)O3)cc1	-8	3
O=C(C[C@@H]1C[C@@H]2c3cc(NC(=O)C4CCC4)ccc3O[C@@H]2[C@H](CO)O1)NCc1ccccn1	3	4
C[C@H](CO)N1C[C@H](C)[C@@H](CN(C)S(=O)(=O)c2cn(C)cn2)Oc2ccc(NC(=O)CCC(F)(F)F)cc2C1=O	10	9
C[C@@H]1CN([C@@H](C)CO)C(=O)c2cccc(NC(=O)Nc3ccc(C(F)(F)F)cc3)c2O[C@@H]1CN(C)C(=O)Nc1ccc(F)cc1	u	x
CCCNC(=O)N1CC2(C1)CN(S(C)(=O)=O)[C@H](CO)c1c2c2ccc(OC)cc2n1C	10	9
C[C@H]1CN([C@@H](C)CO)S(=O)(=O)c2ccc(C#CC3CC3)cc2O[C@H]1CN(C)Cc1cccc(F)c1	u	x
C[C@@H]1CN([C@@H](C)CO)C(=O)c2c(c3ccccc3n2C)-c2ccccc2CO[C@H]1CN(C)Cc1cccc(F)c1	u	x
COc1ccc(NC(=O)Nc2ccc3c(c2)CC(=O)N([C@@H](C)CO)C[C@@H](C)[C@H](CN(C)Cc2ccc4c(c2)OCO4)O3)cc1	u	x
C[C@@H]1CN([C@@H](C)CO)C(=O)Cc2cc(NC(=O)Cc3cn(C)c4ccccc34)ccc2O[C@@H]1CN(C)Cc1ccc(C(=O)Nc2ccccc2N)cc1	-14	-7
CN(C)C(=O)[C@@]1(Cc2ccccc2)COC(c2ccc(OCCCO)cc2)=N1	12	14
COc1ccc(CN(C)C[C@@H]2OCCCC[C@@H](C)Oc3ccc(NC(=O)Nc4cccc5ccccc45)cc3C(=O)N([C@@H](C)CO)C[C@@H]2C)cc1	-23	-12
C[C@H](NC(=O)C[C@H]1C=C[C@@H](NS(=O)(=O)c2cccc(F)c2)[C@@H](CO)O1)c1ccccc1	-6	-5
O=C(Cc1ccccn1)N1CC(=O)N2[C@H](CO)[C@@H](c3ccc(-c4ccccc4)cc3)[C@H]2C1	-16	-11
C[C@@H]1CCCCO[C@H](CN(C)S(=O)(=O)c2ccccc2)[C@@H](C)CN([C@@H](C)CO)C(=O)c2cc(NC(=O)Nc3ccc(F)cc3)ccc2O1	30	17
C[C@@H](O)C#Cc1cnc2c(c1)C(=O)N([C@@H](C)CO)C[C@H](C)[C@@H](CN(C)C(=O)Cc1ccncc1)O2	16	0
CC(C)NC(=O)N(C)C[C@H]1OCc2cnnn2CCCC(=O)N([C@@H](C)CO)C[C@@H]1C	4	9
C[C@@H]1CN([C@H](C)CO)C(=O)c2cccc(NC(=O)C3CCOCC3)c2O[C@@H]1CN(C)S(=O)(=O)c1cn(C)cn1	-2	4
Cc1ccc(-c2ccc3c(c2)O[C@@H](CN(C)Cc2ccc(F)cc2)[C@H](C)CN([C@@H](C)CO)S3(=O)=O)cc1	u	x
C[C@@H]1CN([C@@H](C)CO)C(=O)c2cc(NS(=O)(=O)c3ccc(F)cc3)ccc2O[C@@H]1CN(C)Cc1ccncc1	0	-1
Cc1noc(C)c1NC(=O)N(C)C[C@H]1OCCCC[C@@H](C)Oc2ccc(NC(=O)NC(C)C)cc2C(=O)N([C@H](C)CO)C[C@H]1C	7	5

# (continued)
mol	Vaccinia stage	Vaccinia stage Venus
CC(C)NC(=O)N1C[C@H]2[C@@H](c3ccccc31)[C@H](CO)N2C(=O)c1ccccc1	10	10
CO[C@H]1CN(C)C(=O)c2cc(NC(=O)Nc3cc(F)ccc3F)ccc2OC[C@@H](C)N(C)C[C@H]1C	-30	-16
C[C@@H]1CN([C@H](C)CO)C(=O)Cc2cc(NC(=O)c3ccncc3)ccc2O[C@H]1CN(C)Cc1ccncc1	16	15
O=C(N[C@H]1CC[C@H](CCn2cc(C3(O)CCCC3)nn2)O[C@H]1CO)C1CCC1	-7	-5
CNC[C@H]1Oc2ccc(NC(=O)Cc3ccccc3)cc2C(=O)N([C@@H](C)CO)C[C@H]1C	1	6
O=C(Nc1ccccc1F)N1CC(=O)N2[C@H](CO)[C@@H](c3ccc(C#CC4CCCC4)cc3)[C@H]2C1	u	x
C#CCNC(=O)C1=C[C@@H](c2ccc3c(c2)OCO3)[C@H](CCCO)[C@@H](OCC)O1	-4	-4
COc1ccc(NC(=O)N(C)C[C@@H]2Oc3c(NC(=O)Nc4c(C)noc4C)cccc3C(=O)N([C@H](C)CO)C[C@H]2C)cc1	8	7
CCCNC(=O)N(C)C[C@@H]1Oc2ncc(-c3ccc(F)cc3)cc2C(=O)N([C@H](C)CO)C[C@H]1C	13	7
COc1ccc(C#Cc2ccc3c(c2)[C@]2(C(=O)N3)[C@H](C(=O)N3CCc4cc(OC)c(OC)cc4C3)[C@H]3C(=O)O[C@H](c4ccccc4)[C@H](c4ccccc4)N3[C@@H]2c2ccccc2OCCO)cc1	14	10
O=C(c1cccc(F)c1)N1CCCCN2[C@H](CO)[C@H](c3ccc(-c4ccccc4)cc3)[C@H]2C1	u	x
C[C@H](CO)N1C[C@H](C)[C@H](CN(C)S(=O)(=O)c2ccc(Cl)cc2)Oc2c(NS(=O)(=O)c3cccs3)cccc2C1=O	-34	-20
N#C[C@@H]1[C@@H](c2ccc(-c3ccncc3)cc2)[C@@H](CO)N1C(=O)CN1CCOCC1	3	9
CCO[C@H]1OC(C(=O)O)=C[C@@H](c2csc3ccccc23)[C@@H]1CCCO	20	5
CO[C@@H]1CN(C)C(=O)c2cc(NC(=O)CC(F)(F)F)ccc2OC[C@@H](C)N(C(=O)c2ccccc2F)C[C@@H]1C	17	23
COc1ccc(CN2CC3(CCN(C(=O)C4CCOCC4)CC3)c3c(n(C)c4cc(OC)ccc34)[C@@H]2CO)cc1	8	2
C[C@@H]1CCCCO[C@@H](CN(C)C(=O)NC2CCCCC2)[C@@H](C)CN([C@H](C)CO)C(=O)c2cc(NC(=O)Nc3cccc4ccccc34)ccc2O1	16	11
O=C(NC1CCCC1)N1CCCCN2[C@H](CO)[C@H](c3ccc(-c4cncnc4)cc3)[C@H]2C1	15	5
COCCNC(=O)C[C@H]1C[C@H]2c3cc(NC(=O)Nc4ccc(C(F)(F)F)cc4)ccc3O[C@H]2[C@H](CO)O1	-5	9
C[C@@H]1CN([C@@H](C)CO)C(=O)Cc2cc(N(C)C)ccc2O[C@@H]1CN(C)Cc1ccncc1	15	10
COc1cccc(CN2[C@H](CO)[C@@H]3c4ccccc4N(C(=O)CC(F)(F)F)C[C@@H]32)c1	8	3
Cc1cc(C(=O)Nc2cccc3c2O[C@@H](CN(C)Cc2ccc4c(c2)OCO4)[C@@H](C)CN([C@H](C)CO)C3=O)n(C)n1	5	-1
COc1ccc(NC(=O)N2C[C@H](O)COC[C@@H]3O[C@H](CC(=O)N4CCOCC4)CC[C@H]32)cc1	7	1
COc1ccc(S(=O)(=O)Nc2ccc3c(c2)CC(=O)N([C@@H](C)CO)C[C@H](C)[C@H](CN(C)C)O3)cc1	3	-7
O=C(C[C@@H]1C[C@@H]2c3cc(NS(=O)(=O)c4ccccc4)ccc3O[C@@H]2[C@@H](CO)O1)NC1CCCC1	-8	-5
CO[C@@H]1CN(C)C(=O)c2cc(NS(=O)(=O)c3ccc(-c4ccccc4)cc3)ccc2OC[C@H](C)NC[C@@H]1C	-22	-8
O=C(C[C@H]1CC[C@H](NC(=O)Nc2ccc3c(c2)OCO3)[C@@H](CO)O1)NCCCN1CCOCC1	10	11

# An excerpt from above in order of molar mass, low to high.
mol	Vaccinia stage	Vaccinia stage Venus
COc1cccc(CN2[C@H](CO)[C@@H]3c4ccccc4N(C(=O)CC(F)(F)F)C[C@@H]32)c1	8	3
C[C@@H]1CN([C@@H](C)CO)C(=O)Cc2cc(N(C)C)ccc2O[C@@H]1CN(C)Cc1ccncc1	15	10
O=C(C[C@@H]1C[C@@H]2c3cc(NS(=O)(=O)c4ccccc4)ccc3O[C@@H]2[C@@H](CO)O1)NC1CCCC1	-8	-5
CO[C@@H]1CN(C)C(=O)c2cc(NS(=O)(=O)c3ccc(-c4ccccc4)cc3)ccc2OC[C@H](C)NC[C@@H]1C	-22	-8
Cc1cc(C(=O)Nc2cccc3c2O[C@@H](CN(C)Cc2ccc4c(c2)OCO4)[C@@H](C)CN([C@H](C)CO)C3=O)n(C)n1	5	-1

# Screening results as filed in PubChem BioAssay.
